From PubChem
HIV Env fusion: inhibitors of HIV-1 Env-driven cell-cell fusion, primary screen, HeLa-JRFL effector, CEM21 target cells, luciferase. inhibition, % at 12.3 µM. hit rate 1.1% among 360,000. AID 651610, 2012;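 active means mean replicate inhibition score of at least 50 and every replicate individually at or above 50; inconclusive means only one of the two criteria met; inactive means mean below 50 and not all replicates reaching 50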;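 further: 0% = plate neutral controls and 100% = maraviroc near 300 nM; one replicate is shown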
MT1-MMP act inh: blockers of MT1-MMP proenzyme processing, primary screen, HT1080 RFP-PRO-GFP cells, GFP/RFP fluorescence; Matrix metalloproteinase-14 (Homo sapiens), P50281; hit rate 0.061% among 360,000; AID 651647, 2012; GFP/RFP ratio change, % at 20 µM; GFP/RFP ratio fluorescence, overnight; percent of plate control window, DMSO zero;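 active means GFP/RFP ratio change of at least 30% with cell ATP level not reduced by more than half and red fluorescence within 50% of control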; further: strong numbers were not always called active
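Assay system: HT1080 cells carrying an RFP-PRO-GFP reporter | Dosing: Single dose of 20 µM compound, 1% DMSO final | Incubation: Cells overnight before dosing, compound overnight, 37 °C, 5% CO2 | Evaluation: GFP/RFP fluorescence ratio | Control set: DMSO and RFP-L50D-GFP cell wells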
UUG fidelity: modulators of yeast start codon fidelity, primary screen, whole organism, S. cerevisiae, single point, plate reader. S. cerevisiae UUG-firefly luciferase reporter, luminescence/redox ratio. activity score, % at 18.7 µM. hit rate 0.13% among 350,000. AID 602363, 2012;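 active means replicate mean at a twofold rise or more, about +100% in these data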;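 further: firefly luciferase made from a UUG start codon reports start codon fidelity; reporter light over untreated wells divided by growth signal over untreated wells; some hits fall short of that in this replicate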
Rce1 inh: yeast Rce1p protease inhibitors, primary screen, biochemical, fluorescence, cell-free homogeneous; yeast membranes, quenched prenylated peptide cleavage fluorescence; calls only; AID 2563, 2010; CAAX prenyl protease 2 (Saccharomyces cerevisiae (strain ATCC 204508 / S288c)), Q03530; hit rate 0.27% among 290,000;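 active means fall in fluorescence gain of 50% or more versus controls, with final raw signal at or below 3038400; inconclusive means same 50% fall but final raw signal above 3038400; inactive means fall in fluorescence gain under 50%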;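 further: plate controls were neutral control wells for no effect and wells lacking membranes for full effect; tested at 10 µM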
CSC inhib: cancer stem cell viability inhibitors, primary screen, luminescence. cancer stem cell-like cells viability. inhibition, % at 7.5 µM. hit rate 1.1% among 300,000. AID 2717, 2010;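 active means mean at 75% or more and at least half the replicates too; inconclusive means mean and replicates disagree; tested in HMLE shEcad cells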;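 further: 0% = median of negative and 100% = median of positive control wells; the first replicate is given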
PABP FP inh: PABP poly(A) RNA binding inhibitors, primary screen, biochemical, fluorescence polarization, uHTS | Polyadenylate-binding protein 1 (Homo sapiens), P11940 | inhibition, % at 35 µM | hit rate 1% among 290,000;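 active means 50% or more with normal probe brightness, or confirmed in later tests; inconclusive means above 50% with abnormal brightness, or retests that disagree; inactive means below 50% or failed in later tests; about a fifth of its hits are not listed in these tables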;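 further: calls also rest on retests at 20 µM and on dose response follow-up; controls were probe without protein and protein plus probe with vehicle; some compounds called inactive have numbers as strong as hits; many hits fall short of the cut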
Target sequence (P11940 whole entry, looked up): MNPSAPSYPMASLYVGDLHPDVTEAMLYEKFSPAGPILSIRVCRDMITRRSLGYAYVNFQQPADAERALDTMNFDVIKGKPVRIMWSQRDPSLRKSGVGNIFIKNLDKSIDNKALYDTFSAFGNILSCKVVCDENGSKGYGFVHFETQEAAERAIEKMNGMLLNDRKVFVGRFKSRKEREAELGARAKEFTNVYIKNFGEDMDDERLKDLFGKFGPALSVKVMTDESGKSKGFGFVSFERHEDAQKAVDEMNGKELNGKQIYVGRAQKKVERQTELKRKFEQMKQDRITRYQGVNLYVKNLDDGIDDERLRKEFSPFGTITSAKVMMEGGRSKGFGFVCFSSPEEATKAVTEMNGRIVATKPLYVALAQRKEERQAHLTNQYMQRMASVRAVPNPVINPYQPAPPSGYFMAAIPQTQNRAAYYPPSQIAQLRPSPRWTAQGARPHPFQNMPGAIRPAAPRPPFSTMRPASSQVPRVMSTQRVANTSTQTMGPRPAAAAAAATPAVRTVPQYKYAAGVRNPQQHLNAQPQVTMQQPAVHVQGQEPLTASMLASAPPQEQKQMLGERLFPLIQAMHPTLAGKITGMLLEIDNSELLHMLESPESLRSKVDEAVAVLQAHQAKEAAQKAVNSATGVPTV
eIF4H inh: human eIF4H binding inhibitors, primary screen, translation initiation inhibitor project, biochemical, uHTS, fluorescence polarization; hit rate 0.94% among 290,000; eIF4H fluorescence polarization binding assay; inhibition, % at 35 µM; AID 2012, 2009; Eukaryotic translation initiation factor 4H (Homo sapiens), Q15056;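 active means 50% or more with normal probe brightness, or confirmed in later tests; inconclusive means above 50% with abnormal brightness, or retests that disagree; inactive means below 50% or failed in later tests; about a fifth of its hits are not listed in these tables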;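 further: calls also rest on retests at 20 µM and on dose response follow-up; 0% = protein and probe with vehicle and 100% = probe without protein; strong numbers were not always called active; many hits fall short of the cut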
eIF4H inh retest: further read-out of eIF4H inh, marked with its call; inhibition, %; compound at 20 µM; confirmation average;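 mean of two retest wells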
PABP FP inh retest: recorded beside PABP FP inh, whose call it bears; inhibition, %; compound at 20 µM; confirmation repeats;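 mean of two retest wells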
MT1-MMP act inh RFP: further read-out of MT1-MMP act inh, marked with its call; RFP signal change, %; measured here: RFP expression control read;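 0 = vehicle wells; hits needed this value within 50% of zero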
Starred values were filed as active, the others as inactive; i = inactive; ? = inconclusive; . = no result given; & = joins results of further samples; [ ] = remark or other dose. This is a subset (hit frequency here may not be typical).

SMILES	HIV Env fusion	MT1-MMP act inh	MT1-MMP act inh RFP	UUG fidelity	Rce1 inh	CSC inhib	PABP FP inh	eIF4H inh	others
CCc1nnc(NC(=O)C(C)N2C(=O)C3C4C=CC(C4)C3C2=O)s1 (stereo not given)	-63	1	-5	-11	i	4	3	17
COc1ccc(C(C)(C)NC(=O)C2CCC(=O)N(CCCN3CCCC3=O)C2)cc1 (stereo not given)	-3	0	1	-9	i	-6	-4	-18
CN(C)CCCN(C(=O)COc1ccc(Cl)cc1)c1nc2ccc(F)cc2s1	-2	-4	-3	-11	i	-6	5	-2
CN(C)CCCNc1ccc(-c2cc(Nc3cccc(Cl)c3)ncn2)cn1	1	8	-2	13	i	81*	-8	-1
COc1ccc(CCNC(=O)C2CCCN2C(=O)Nc2cccc(C(C)=O)c2)cc1OC (stereo not given)	-64	-4	0	-6	.	.	4	-2
CC(=O)Nc1ccc(-c2csc(N/N=C(/C)c3ccccc3)n2)cc1	-15	4	-1	.	i	-5	12	-5
CSCCC(NC(=O)c1ccccc1Cl)C(=O)N1CCN(c2ccccn2)CC1 (stereo not given)	-6	-1	-2	0	i	-17	-2	2
O=C(NCCCO)/C(=C\C=C\c1ccccc1)NC(=O)c1ccccc1Cl	14	0	2	1	i	-5	5	-8
O=C(CSc1nc2ccccc2c(=O)n1Cc1ccc(C(=O)NC2CC2)cc1)NCc1ccco1	-127	2	-1	-5	i	-8	10	-10
C[C@@H]1CN([C@@H](C)CO)C(=O)CCCn2nncc2CO[C@H]1CN(C)C(=O)c1ccccc1	8[16.7 µM]	-1	1	-15&-9&-10	.	.	.	.
O=C(O)CSc1cc(NS(=O)(=O)c2ccc(Cl)cc2)c2ccccc2c1O	2	-10	8	-36	i	34	16	-2
Cc1onc(-c2ccccc2)c1C(=O)Nc1sc2c(c1C(N)=O)CCC2	17	-8	-12	.	i	9	17	21
Cc1ccc(-n2nnnc2SCC(=O)NC2CCS(=O)(=O)C2)c(C)c1 (stereo not given)	5	-2	-1	-11	.	.	.	.
Cc1cccc(NC(=O)CCS(=O)(=O)c2ccccc2)c1	-59	4	6	.	i	-11	-9	-4
O=C1CCN(c2ncccc2[N+](=O)[O-])CC1	-6	2	3	.	i	-5	5	2
O=C(NCCc1ccc(C(F)(F)F)cc1)C1CCC(=O)N(CCCc2ccccc2)C1 (stereo not given)	14	3	-9	6	i	11	4	-1
O=C(/C=C/c1ccccc1)N/C(=C/c1ccccc1)C(=O)Nc1ccccc1O	-77	-7	-17	.	i	.	-9	0
Cc1ccc(NC(=O)CN(C)C(=O)/C=C/c2cccs2)cc1	-1	3	3	-14	i	-13	5	-1
COc1ccccc1NC(=S)N1CCC(NC(=O)C23CC4CC(CC(C4)C2)C3)CC1	6	2	2	.	i	-7	0	-7
Cc1nc2c3ccccc3nc(NNC(=O)CCC(=O)NCCN3CCN(c4ccccc4)CC3)n2n1	3	-2	3	-24	i	-5	0	0
CCC(Oc1ccccc1)C(=O)N(C)CC(=O)N(CC(C)C)c1c(N)n(CC(C)C)c(=O)[nH]c1=O (stereo not given)	-26	-5	-3	.	i	.	.	.
Cc1c(C(=O)NC(C)c2ccccn2)oc2c(Cl)cccc12 (stereo not given)	3	1	6	10	.	.	.	.
COc1ccc(NC(=O)c2ccc3ccccc3c2)cc1NS(=O)(=O)c1ccc(F)cc1	-13	-1	-3	.	i	31	4	0
CCOc1ccc(C2=CSC3=NCCN23)cc1[N+](=O)[O-]	17	-1	1	-7	i	7	-7	-10
COc1ccc(OC)c(N(CC(=O)NCCSCc2ccc(C)cc2)S(C)(=O)=O)c1	32	5	-4	-5	i	-9	4	6
CC(C)OC(=O)c1cc(C(=O)c2cc(Cl)ccc2O)coc1=N	17	-12	2	6	i	-1	12	6
CCC(CC)C(=O)Nc1ccc(C)cc1O	-15	-1	1	.	i	-7	-1	-7
COc1ccc(CC(=O)NCC2CCCN(Cc3cc(OC)cc(OC)c3)C2)cc1 (stereo not given)	-3	-4	0	-13	i	-8	2	-3
S=C(NC12CC3CC(CC(C3)C1)C2)N1CCCC1	.	-1	3	-16	i	-2	-3	-3
C/C(=N\NC(=O)Cc1cccn1C)c1ccc([N+](=O)[O-])cc1	-18	-1	1	-4	i	-3	-8	-5
Cc1ccc(C(=O)Nc2ccc(C(=O)N/N=C/c3ccccn3)cc2)cc1	-2	4	2	-25	.	-4	8	6
CC(NCc1ccc(S(N)(=O)=O)cc1)C(=O)Nc1cccc(Cl)c1 (stereo not given)	13	-4	-7	-15	i	-6	-7	-6
COC(=O)c1c(C)n(-c2ccccc2)c2ccc(O)cc12	28	-4	-7	-4	i	13	-14	0
O=C(O)C1C2CCC(O2)C1C(=O)Nc1ccc(Br)cc1F (stereo not given)	-29	3	4	-1	i	-8	.	.
COCCn1c(=S)[nH]c2sc3c(c2c1=O)CCC(C)C3 (stereo not given)	-3	1	4	-9	i	19	8	9
Cc1ccc(S(=O)(=O)N2C[C@]3(O)C[C@@H]4C(=O)N(c5ccccc5)C(=O)[C@@H]4C[C@]3(OC(=O)NCC3CCCCC3)C2)cc1	-55	-1	-1	-1	.	.	.	.
N#Cc1ccc(Cn2ccnc2C(=O)Nc2ccccc2)cc1	2	4	4	.	i	10	2	-14
CCOC(=O)c1cc(C(=O)OCC)c(=O)[nH]c1C	.	-1	0	.	i	0	0	-4
Cc1cccc(N2CCN(C(=O)CCC(=O)N3CC(C)Oc4ccc(C)cc43)CC2C)c1 (stereo not given)	47	7	-15	19	i	-2	-8	-3
Cc1ccc(/C=N/NS(=O)(=O)c2ccccc2)o1	-19	3	-3	-9	i	17	1	8
Nc1c(S(=O)(=O)c2cccs2)c2nc3ccccc3nc2n1Cc1cccs1	.	-8	-8	-22	i	-7	7	-9
CCOC(=O)C1=C(C)NC(=O)NC1c1c(OC)ccc2ccccc12 (stereo not given)	4	6	-3	-10	i	-8	11	-13
C=CCc1cccc2cc(C(=O)NNC(=O)CC#N)c(=O)oc12	11	1	3	.	i	2	3	10
FC(F)(F)c1cccc(NC(=S)NCCc2ccccn2)c1	-12	1	-3	-7	i	-8	8	-4
O=C1Cc2ccccc2C(c2ccc(Cl)cc2Cl)N1 (stereo not given)	14	-5	-8	-4	i	-7	-1	7
Cc1ccnc(NCc2cc(C)ccc2O)c1	-5	2	-1	8	i	-18	-4	4
CC(C)CN(C(=O)COC(=O)c1ccc(Cl)c(N)c1)c1c(N)n(Cc2ccccc2)c(=O)[nH]c1=O	-1	-6	-6	-3	i	0	.	.
NC(=O)C1CCN(C(=O)c2ccc3ncsc3c2)CC1	8	-2	3	-6	.	.	.	.
Cc1nn(-c2ccccc2)c(C)c1Cc1ccc(O)cc1	-15	-1	-10	-6	i	2	6	5
O=C(Nc1cc(=O)[nH]c2ncnn12)c1ccccc1	.	9	-2	-4	i	5	-4	-8

Following part.
SMILES	HIV Env fusion	MT1-MMP act inh	MT1-MMP act inh RFP	UUG fidelity	Rce1 inh	CSC inhib	PABP FP inh	eIF4H inh	others
Cc1ccc(C2c3c(oc4ccccc4c3=O)C(=O)N2c2nncs2)cc1 (stereo not given)	0	-2	-1	-2	i	-16	6	1
COc1ccccc1N1CCN(Cc2ccc(O)c3ncccc23)CC1	75*	2	-6	-33	i	.	-10	13
COC(=O)CC1C(=O)NCCN1C(=S)NC(=O)CCc1ccccc1 (stereo not given)	-84	-7	-3	.	i	-11	-8	-2
COc1ccc(CCN(C(=O)c2cccc(F)c2)C2CC(=O)N(c3ccccc3)C2=O)cc1 (stereo not given)	24	-6	-3	0	i	10	-11	-10
COc1ccc2c(c1)cc(C(=O)N[C@@H](CCSC)C(=O)N1CCC[C@H]1C(=O)O)n2C	.	9	8	10	.	-8	-5	2
COc1cc(C)ccc1OCCOc1ccccc1Cl	.	1	-1	-5	i	8	-7	-2
CCc1ccc(C2=NN(CCC(=O)NC(C)CCc3ccccc3)C(=O)CC2)cc1 (stereo not given)	?	-4	-11	-14	i	-10	4	-12
COCCCNc1ncnc2c1cnn2-c1ccc(C)cc1C	-100	-1	-3	-20	i	-13	-6	3
Cc1noc(C)c1CSc1nc2sc3c(c2c(=O)n1C)CCCC3	-5	1	-8	-14	i	.	1	-6
Nn1c(SCC(=O)Nc2ccccc2)nnc1C1CCCCC1	13	4	6	-1	i	-17	.	.
CC(=O)N1c2ccc(S(=O)(=O)N(C)C3CCCCC3)cc2CC1C (stereo not given)	0	-1	-3	-2	i	8	-3	-14
COc1ccc(N2CCN(C(=O)C(=O)c3cn(CC(=O)N4CCOCC4)c4ccccc34)CC2)cc1	6	4	3	2	i	4	21	79	eIF4H inh retest=-22;PABP FP inh retest=16
COc1cc(C)c(Br)cc1S(=O)(=O)N1CCOCC1	.	1	-2	-26	i	-15	9	2
O=C(c1ccc(F)cc1)N1CCN2C(=O)c3ccccc3C12c1ccccc1 (stereo not given)	17	2	5	.	i	-6	-13	2
O=C(CCCc1nc2ccccc2s1)NCc1ccccc1F	2	.	.	.	i	-12	-3	2
CCOCC(=O)Nc1ccc(S(=O)(=O)NCCc2ccccc2)cc1	.	3	-3	-3	i	5	6	-4
CC(=O)N1CCN(Cc2nc3ccc(Cl)cc3n2CCO)CC1	-65	-3	1	-23	i	-8	2	5
COc1cc(OC)c2c(-c3cccc(-c4sccc4C(C)=O)c3)cc(=O)oc2c1	-244	2	-9	-10	.	.	.	.
NS(=O)(=O)c1ccc(CCNC(=O)c2ccc(NC3=NC4CS(=O)(=O)CC4S3)cc2)cc1 (stereo not given)	.	-3	1	-2	i	-8	-3	-4
CC1=C(C(=O)N(C(C)C)C(C)C)CC(CC(=O)NCCc2ccccn2)C(=O)N1Cc1ccc(C(C)(C)C)cc1 (stereo not given)	-1	1	-4	3	.	.	.	.
Cc1ccc(S(=O)(=O)NNC2=NS(=O)(=O)c3ccccc32)c(C)c1	-3	10	8	.	i	-2	7	-2
c1nc2n(n1)C1=C(CCCC1)C1(CCCCC1)N2	12	-3	-2	.	i	5	3	0
CN(C)c1ccc(N/C(N)=N/c2nc(C(F)(F)F)cc(C(F)(F)F)n2)cc1	14	1	-4	.	i	-7	-12	4
Cc1csc(Sc2nc3c(c(=O)[nH]c(=O)n3C)n2CCCc2ccccc2)n1	i	5	4	-26	i	2	-1	-1
Cc1ccc2nc(SC(C)C(=O)N3CCOCC3)[nH]c2c1 (stereo not given)	4	5	2	.	i	1	8	-6

Among those listed so far, 2 have a cyano group.
SMILES	HIV Env fusion	MT1-MMP act inh	MT1-MMP act inh RFP	UUG fidelity	Rce1 inh	CSC inhib	PABP FP inh	eIF4H inh	others
N#Cc1ccc(Cn2ccnc2C(=O)Nc2ccccc2)cc1	2	4	4	.	i	10	2	-14
C=CCc1cccc2cc(C(=O)NNC(=O)CC#N)c(=O)oc12	11	1	3	.	i	2	3	10
